Screening data deposited in PubChem by several laboratories.
Mtb hypoxia inh = Mtb hypoxia fluorescent reporter inhibition; M. tuberculosis hypoxia-regulated fluorescent reporter, fluorescence; fluorescence inhibition, % (no concentration beside the values); actives 0.1% (n = 300,000); AID 1159583;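 active = 35 to 45% if threefold the growth effect, above 45% if 1.5-fold the growth effect; inactive = the rest, general growth blockers included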;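 also: wells of about 50 µL received 100 nL stock; 0% = vehicle wells and 100% = reference inhibitor wells; whole bacteria with a GFP reporter of the hypoxia response; strong numbers were not always called active; many hits fall short of the cut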
BJeLR lethal = BJeLR cell viability loss. BJeLR (HRASV12) viability, CellTiter-Glo ATP luminescence, 48 h; reference of the scale not given here. inhibition, % (test concentration not listed). actives 0.17% (n = 300,000). AID 1554;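 active = replicate mean above 50%; inconclusive = above 50% but judged a plate artefact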;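 also: 50 nL library stock added to about 25 µL; numbers are from one replicate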
PrP 5UTR inh = inhibition of PrP 5' UTR reporter expression; cell-based PrP 5' UTR mRNA reporter, plate reader; inhibition, % (concentration not given with the values); actives 0.35% (n = 340,000); AID 488862;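 active = every replicate at 50% or more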;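 also: 0 = median of the neutral control wells; tested in H4 reporter cells; numbers are from one replicate; inactives centre near -14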
Sa ugtP lethal = growth inhibition of S. aureus ugtP deletion strain; growth inhibition, % (test concentration not listed); S. aureus RN4220 ugtP deletion, OD600 growth, 16 h; some inactives read as strong as hits; AID 1259309; actives 0.54% (n = 330,000);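 active = z-score under -3 and OD600 up to 0.15 on both plates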;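 also: plate controls were untreated wells for no effect and antibiotic for full effect; wells of about 80 µL received 100 nL stock; the first replicate is given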
Bead autofluor = counter-screen for toxin protease inhibitors: compound fluorescence. AID 624483. compound autofluorescence counterscreen, microsphere flow cytometry; stronger effect = higher value. actives 3.1% (n = 360,000). fluorescence intensity (test concentration not listed);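 active = at least 3 SD above the mean of all compounds, about 16000 in these data; inconclusive = too few beads counted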;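 also: 100 nL of 1 mM stock went into each well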
RN4220 kill = kills Staphylococcus aureus RN4220; inhibition, % (test concentration not listed); S. aureus RN4220 growth, OD600, 16 h; actives 0.33% (n = 330,000);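 active = z-score of -3 or lower and OD600 up to 0.18 on both plates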;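 also: plate controls were untreated cells for no effect and reference antibiotic for full effect; stock transfer was 100 nL into about 80 µL; one replicate is shown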
Mtb hypoxia inh growth = recorded beside Mtb hypoxia inh, whose call it bears; growth inhibition, %; measured here: M. tuberculosis growth (absorbance);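 0% = vehicle and 100% = reference antibiotic; read after six days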
The depositor's hits bear a star; ? = inconclusive; . = not tested or not shown.

Below each compound: PrP 5UTR inh	Sa ugtP lethal	RN4220 kill	Mtb hypoxia inh	Mtb hypoxia inh growth	BJeLR lethal	Bead autofluor
O=C(N/N=C/c1cccc([N+](=O)[O-])c1O)c1cccs1
    1.0	.	.	.	.	-3.0	2441
COc1ccc(-c2c(C(F)(F)F)[nH]n3c(=O)cc(-c4ccccc4)nc23)cc1
    -43.6	35.9	39.0	-1.6	-10.4	0.7	4218
CCOc1ccc(NS(=O)(=O)c2cnc(Cl)c(Cl)c2)cc1
    -19.1	-4.7	9.5	12.1	3.8	-11.8	2256
Cc1ccccc1CN1CCC(n2nccc2NC(=O)CCCc2ccccc2)CC1
    -3.5	0.2	-1.0	2.5	7.9	2.5	6042
Cn1c(C(=O)NC2CCCCC2)cc2sccc21
    -127.3	-12.8	0.1	9.4	19.5	-3.1	11548
Cc1cccc(NC(=O)c2ccc3ccccc3n2)n1
    -105.7	-4.1	3.8	.	.	6.1	5060
COc1ccc(Nc2nc(NCc3ccco3)nc(N/N=C/c3ccccc3Cl)n2)cc1
    -62.9	.	.	.	.	4.5	2618
CN(C)S(=O)(=O)Oc1ccc(Cl)cc1C(=O)Nc1cccc(C(F)(F)F)c1
    -24.3	35.5	-0.2	12.4	9.0	0.0	8244
CC(C)(C)OC(=O)NCCCCC(NC(=O)c1[nH]cnc1C(=O)Nc1ccc(CNC(=O)OC(C)(C)C)cc1)C(=O)OC(C)(C)C (stereo not drawn)
    .	-13.5	5.1	4.6	6.7	.	.
C=CCN=C1SC(CC)C(=O)N1S(=O)(=O)c1ccc(C)cc1 (stereo not drawn)
    -11.0	-4.0	5.1	.	.	-0.7	4205
COc1ccc(CNC(=O)c2ccc(CS(=O)Cc3ccc(Cl)cc3)o2)cc1 (stereo not drawn)
    -6.6	2.4	0.4	-3.1	6.2	-2.9	4251
CCN1CCN(C(c2cccs2)C(C)NC(=O)NC2CCCCC2)CC1 (stereo not drawn)
    -7.7	1.3	-4.0	11.0	6.1	-6.5	5556
CCN(CC(=O)Nc1c(F)cccc1F)C(=O)Cc1ccc(OC)c(S(=O)(=O)N2CCOCC2)c1
    -15.1	5.2	0.4	-6.8	3.9	-5.0	?
COCCCNc1nc2ccccc2nc1NS(=O)(=O)c1ccc(C)cc1C
    -22.2	6.3	7.4	0.8	5.2	-14.5	4622
O=C(CN(C(=O)Cn1nnc(-c2cccs2)n1)c1ccc2c(c1)OCCO2)NC1CCCCC1
    -18.7	-2.4	6.2	5.3	4.3	-7.5	5769
S=C(Nc1cccnc1)Nc1cccc2cnccc12
    -6.1	14.7	2.9	2.0	8.1	-13.6	3475
Cc1ccc(NC2=C(Cl)C(=O)N(C3CCCCC3)C2=O)cc1
    -15.6	3.0	-2.9	-5.5	-6.2	-12.7	2193
Nc1cc(N)nc(SCC(=O)c2ccccc2)n1
    -42.1	0.5	1.3	1.8	-4.5	4.2	4407
Oc1cccc2ccc(/C=C/c3ccc(Br)s3)nc12
    -78.5	.	.	.	.	3.1	3464
Cc1csc(SCC(=O)c2cc(C)n(Cc3cccs3)c2C)n1
    47.7	13.5	-2.4	5.8	8.9	8.8	4535

(further entries)
Below each compound: PrP 5UTR inh	Sa ugtP lethal	RN4220 kill	Mtb hypoxia inh	Mtb hypoxia inh growth	BJeLR lethal	Bead autofluor
Cc1ccccc1NC(=O)C1C2/C=C\CCCCC21 (stereo not drawn)
    -13.6	.	.	.	.	-5.7	2554
COc1ccccc1NC(=O)COC(=O)c1cnc(C)cn1
    4.6	-0.3	3.8	-7.1	17.7	-2.3	4558
COc1ccc(C2C=CCN(C(=O)CC(C)(C)C)C(C)C(=O)N2Cc2ccc(F)cc2)cc1 (stereo not drawn)
    .	10.3	4.3	-0.7	5.4	.	.
O=C(CNC(=O)c1ccc(F)cc1)Nc1ccccc1C(F)(F)F
    -16.2	-2.7	1.4	0.7	2.0	-2.9	5068
COc1cccc(/C=C2\SC(=S)N(C(Cc3ccccc3)C(=O)O)C2=O)c1 (stereo not drawn)
    -8.0	1.9	25.3	13.3	7.0	-3.9	4184
COc1ccc(NC(=O)CSc2nnc(-c3cccs3)n2N)cc1S(N)(=O)=O
    -13.5	1.7	1.0	6.2	4.7	.	3736
Cc1cccc(-c2noc(CCCC(=O)NC3CCCCC3)n2)c1
    -10.2	2.4	-2.2	10.6	7.6	-4.8	5768
C=CCOc1c(CCC)cc(CCC)cc1C(N)=O
    -2.9	6.9	5.8	19.7	4.0	6.2	3334
Cc1cc(C)c(NC(=O)COC(=O)c2cc([N+](=O)[O-])ccc2N2CCOCC2)c(C)c1
    -5.5	5.7	4.5	4.4	0.4	7.0	3987
Cc1noc(C)c1S(=O)(=O)N1CCCC(C(=O)NCCc2ccccc2)C1 (stereo not drawn)
    14.9	12.4	3.8	0.5	-3.0	1.3	3533
CSCCC(NC(=O)c1ccc(Cl)cc1)C(=O)OCC(C)=O (stereo not drawn)
    -33.9	0.7	4.3	17.1	12.9	11.4	4219
O=C(Nc1nnc(C(F)(F)F)s1)c1ccc(Br)s1
    -39.2	80.6*	83.7	10.3	1.1	18.2	3215
CC(C)C(Sc1nc(-c2ccccc2)cc(-c2ccccc2)c1C#N)C(=O)O (stereo not drawn)
    -19.4	30.6	12.2	2.0	0.8	7.4	4209
COc1ccccc1CCNC(=O)CCC(=O)N1CC2C[C@@H](C1)Cn1c2cccc1=O
    -14.3	-0.9	-2.1	.	.	-3.9	5296
Cc1cc(C(F)F)n2ncc(C(=O)NCc3ccccc3)c2n1
    -16.2	1.5	2.4	8.2	3.5	-0.5	6169
COCc1cc(=O)n2[nH]c(N)nc2n1
    -12.4	-1.5	2.4	8.2	-0.3	-3.2	5175
COc1cc(C(=O)n2nc(C)cc2C)cc(OC)c1OC
    -19.7	2.8	6.1	-1.8	2.9	4.0	5213
COC(=O)c1ccc(NC(=O)CN2CCN(CC#N)CC2)cc1
    -6.8	3.8	2.8	3.1	-0.6	3.7	3979
Cn1c(SCC(=O)NC2CC2)nnc1-c1ccco1
    -14.1	3.3	-0.9	.	.	.	3568
COc1ccc(OC)c(C2NC(=O)NC(C)=C2C(=O)Nc2ccc(C)cc2)c1 (stereo not drawn)
    -3.6	-1.0	3.4	9.5	4.5	0.3	10989

Record cards (already shown).
`Cn1c(SCC(=O)NC2CC2)nnc1-c1ccco1` is entered as PrP 5UTR inh: -14.1; Sa ugtP lethal: 3.3; RN4220 kill: -0.9; Mtb hypoxia inh: .; Mtb hypoxia inh growth: .; BJeLR lethal: .; Bead autofluor: 3568
`COc1cccc(/C=C2\SC(=S)N(C(Cc3ccccc3)C(=O)O)C2=O)c1` (stereo not drawn) is entered as PrP 5UTR inh: -8.0; Sa ugtP lethal: 1.9; RN4220 kill: 25.3; Mtb hypoxia inh: 13.3; Mtb hypoxia inh growth: 7.0; BJeLR lethal: -3.9; Bead autofluor: 4184

Continuation:
Below each compound: PrP 5UTR inh	Sa ugtP lethal	RN4220 kill	Mtb hypoxia inh	Mtb hypoxia inh growth	BJeLR lethal	Bead autofluor
COc1cccc(N2C(CC(C)=O)c3cc(C(F)(F)F)ccc3S2(=O)=O)c1 (stereo not drawn)
    .	-2.5	2.9	-3.5	-3.4	.	.
Cc1ccc(N2N=C(c3ccc(F)cc3)CC2c2ccco2)cc1 (stereo not drawn)
    -6.4	13.1	-4.3	3.5	1.1	1.4	4407
CC1CN(c2nc(Nc3ccccc3F)nc(N)c2[N+](=O)[O-])CC(C)O1 (stereo not drawn)
    19.7	-4.7	-0.2	-6.0	12.8	-7.7	3008
O=C(Nc1ccc(C(=O)NC2CCCCC2)cc1)c1cccnc1
    35.7	.	.	.	.	-7.4	4466
Cc1cccc(CN2CCCC(C(=O)Nc3ccccc3Oc3cccnc3)C2)c1 (stereo not drawn)
    -13.6	0.3	2.0	3.6	-5.3	-2.0	.
O=C(NC1CCCC1)c1cnc2n(c1=O)CCS2
    3.3	9.3	7.6	.	.	-0.5	2355
Cc1ccnc(N2CCC(C(=O)NNC(=O)c3ccccc3C)CC2)n1
    -26.0	6.5	2.8	8.5	10.3	-1.5	11161
CCC[C@H]1NC(=O)[C@H](C)N(C)C(=O)C(C)(C)C(=O)C(C)NC(=O)[C@H](Cc2ccc(OC)cc2)N(C)C(=O)[C@H](C(C)C)N(C)C(=O)CNC(=O)[C@H](CC(C)C)N(C)C(=O)CNC(=O)[C@H]([C@@H](C)CC)OC(=O)[C@H]1C (stereo partly drawn)
    .	5.2	3.9	-1.0	5.7	.	.
COc1cccc(CSc2nc3ccccc3[nH]2)c1
    -67.1	-8.2	1.0	-0.4	2.0	12.5	2081
COc1ccc(N2CC(C(=O)N3CCOCC3)CC2=O)cc1 (stereo not drawn)
    -39.9	-1.1	5.2	8.5	6.6	-6.3	3615
COc1ccc(CNC(=O)c2ccc[nH]2)cc1
    48.9	.	.	.	.	-10.0	4554
C=CCN(C(C)=O)C1CC(=O)N(c2ccc(OCCC)cc2)C1=O (stereo not drawn)
    -8.4	-0.9	0.6	.	.	5.1	2693
O=C(CSc1ccc(Cl)cc1)Nn1cnnc1
    11.1	74.1	1.1	0.0	6.9	3.7	4269
Cc1ccc2nc(SCc3ccc([N+](=O)[O-])cc3)[nH]c2c1
    -10.2	-0.6	0.0	2.6	12.4	-1.3	9935
O=C(NCc1cccs1)c1ccc(N2CCCCC2)nc1
    -74.8	12.8	-2.3	19.2	8.8	3.9	13094
CCOc1ccc(C(=O)Nc2cccc(SC)c2)cc1
    -71.2	5.9	4.3	6.1	1.0	-5.1	2056
CCN(CC(=O)Nc1ccc(NC(C)=O)cc1)C(=O)c1ccc(=O)[nH]c1
    -10.5	7.6	2.4	4.3	-1.5	5.3	.
Cc1ccc(C(=O)N/C(=C\c2cn(C)c3ccccc23)C(=O)OCCN(C)C)cc1
    -20.6	3.5	2.5	14.7	7.5	10.9	4129
O=C(NCC(=O)N(CCN1CCOCC1)C(C(=O)NC1CCCC1)c1cccs1)c1ccco1 (stereo not drawn)
    -22.3	1.9	0.4	.	.	-1.5	4967
COCCn1cnnc1SCC(=O)Nc1ccc(N2CCCCC2)cc1
    -17.9	7.8	4.1	7.6	-0.7	.	.

As entered above.
Value for Cc1cccc(CN2CCCC(C(=O)Nc3ccccc3Oc3cccnc3)C2)c1 (stereo not drawn) under Mtb hypoxia inh growth: -5.3
Value for CC1CN(c2nc(Nc3ccccc3F)nc(N)c2[N+](=O)[O-])CC(C)O1 (stereo not drawn) under BJeLR lethal: -7.7
Value for COc1ccc(CNC(=O)c2ccc[nH]2)cc1 under BJeLR lethal: -10.0
Value for COc1ccc(N2CC(C(=O)N3CCOCC3)CC2=O)cc1 (stereo not drawn) under PrP 5UTR inh: -39.9

Additional entries follow:
Below each compound: PrP 5UTR inh	Sa ugtP lethal	RN4220 kill	Mtb hypoxia inh	Mtb hypoxia inh growth	BJeLR lethal	Bead autofluor
Cc1cc(C)c(S(=O)(=O)N2CCN(C(=O)c3ccc(-n4nc(C)c(Cl)c4C)cc3)CC2)c(C)c1
    -13.5	-13.6	-3.7	7.9	2.0	.	3940
COc1ccc(-n2nc([N+](=O)[O-])c(=NCCCN3CCCC3=O)n2O)cc1
    .	40.9	55.6	5.2	1.2	-14.0	4055
COCCNc1nc2nonc2nc1N1CCC(N(C)C)C1 (stereo not drawn)
    -4.6	4.0	1.6	8.9	1.4	-1.1	2446
CCCCOC(=O)CCc1c(C)[nH]c(=S)[nH]c1=O
    -3.6	6.6	4.3	6.7	0.4	-2.9	2564
